Imprint erasure: inducers of genomic imprint erasure in mouse ES cells; 110,000 tested, 0.02% active; mouse ES Peg3-LacZ reporter, beta-gal luminescence, 40 h; Potency, µM (titrated, usually from 60.7 µM), for the others: at the top dose activity change, positive = activation, usual class: activators; active = well fitted activation curve with a large enough effect;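 note: 0% = negative control wells on the plate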
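Readout: BetaGlo luminescence (5 min, room temp) for LacZ from the normally silent maternal Peg3 allele in female Peg3LacZ-Neo ES cells. Cells 300/well, 40 h, 37C, 5% CO2. Data normalized per plate to negative controls.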
Numbers without * were called inactive; & = joins results of further samples; [ ] = remark or other dose. Potency is the fitted concentration of half-maximal effect. An excerpt; most or all hits stand in other tables.

smiles | Imprint erasure
CC(C)NC[C@H](O)COc1cccc2[nH]ccc12 | -18.4%&-8.6%
Cc1ccc(/C(=C/CN2CCCC2)c2ccccn2)cc1 | -1.2%
CN(C)C(=O)C(CCN1CCC(O)(c2ccc(Cl)cc2)CC1)(c1ccccc1)c1ccccc1 | -17.6%
CCN1CCN(CCCNC(=O)c2ccc3c(c2)sc2nc(-c4ccc(OC)cc4)cn23)CC1 | -10.8%[10.9 µM]
O=C1CN(/N=C/c2ccc([N+](=O)[O-])o2)C(=O)N1 | -8.2%&-6.2%
O=S(=O)(Nc1nnc(-c2ccccc2)s1)c1ccc(Cl)cc1 | -18.5%
O=C(NCC1CCCCN1)c1cc(OCC(F)(F)F)ccc1OCC(F)(F)F (stereo not given) | -9.5%
O=C1CN(/N=C\c2ccc([N+](=O)[O-])o2)C(=O)N1 | -4.6%[16.8 µM]
CC(C)NC[C@@H](O)COc1cccc2[nH]ccc12 | -14.7%
Cc1c(C(=O)NN2CCCCC2)nn(-c2ccc(Cl)cc2Cl)c1-c1ccc(I)cc1 | -29.2%

Another view of some results above.
O=C1CN(/N=C/c2ccc([N+](=O)[O-])o2)C(=O)N1
  Imprint erasure: -8.2%&-6.2%
O=S(=O)(Nc1nnc(-c2ccccc2)s1)c1ccc(Cl)cc1
  Imprint erasure: -18.5%
O=C(NCC1CCCCN1)c1cc(OCC(F)(F)F)ccc1OCC(F)(F)F (stereo not given)
  Imprint erasure: -9.5%
O=C1CN(/N=C\c2ccc([N+](=O)[O-])o2)C(=O)N1
  Imprint erasure: -4.6%[16.8 µM]
